VDR inhibitor – Inhibitors of the vitamin D receptor (VDR): qHTS. Vitamin D3 receptor (Homo sapiens), P11473. VDR-SRC2-3 peptide fluorescence polarization, 2 h. Potency, µM, for inactives: max response, negative = inhibition, actives largely listed as inhibitors. 400,000 tested, 0.93% active; active = well fitted inhibition curve with a large enough effect; inconclusive = small, poorly fitted or top-dose-only effect, or another doubt; inactive = no such curve, though single readings can be large or run the other way; note: series mostly up to about 120 µM
Target sequence (P11473 whole entry, looked up): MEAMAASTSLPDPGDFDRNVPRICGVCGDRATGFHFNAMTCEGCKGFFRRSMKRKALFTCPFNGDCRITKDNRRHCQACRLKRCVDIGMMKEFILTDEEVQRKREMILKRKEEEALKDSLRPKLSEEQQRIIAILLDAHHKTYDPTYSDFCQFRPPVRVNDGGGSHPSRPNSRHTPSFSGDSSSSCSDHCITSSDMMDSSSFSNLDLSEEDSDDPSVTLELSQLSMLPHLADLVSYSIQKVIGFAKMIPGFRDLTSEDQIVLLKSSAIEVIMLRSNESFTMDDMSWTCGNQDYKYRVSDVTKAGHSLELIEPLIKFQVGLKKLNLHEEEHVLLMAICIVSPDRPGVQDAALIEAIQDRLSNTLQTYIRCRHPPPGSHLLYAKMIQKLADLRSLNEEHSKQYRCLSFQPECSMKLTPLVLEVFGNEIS
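Signal is fluorescence polarization, reporting how far test compounds block the interaction of VDR with the SRC2-3 coregulator peptide after a 2 h room-temperature incubation.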
The depositor's hits bear a star; ? = inconclusive; & = joins results of further samples. % is set by controls: 0 for no effect and ±100 for the full control effect; potency is the fitted concentration of half-maximal effect.

canonical_smiles	VDR inhibitor
CC1(C#N)c2ccccc2C(Br)=CN1C(=O)c1ccccc1 (centres undefined)	-1%
Cc1cccc(NC(=S)Nc2ccc3cn[nH]c3c2)c1	-19%
CCCCCCCCN1C(=O)C(O)=C(C(C)=O)C1c1ccccn1 (centres undefined)	-11%
O=C(c1ccccc1)C1CCN(C(=O)Nc2ccccc2)CC1	27%
CCN(CC)C1=C(Cl)C(=O)C(Cl)C12OCCO2 (centres undefined)	-5%
Cc1ccc(N(CC(=O)N2CCCCCC2)S(C)(=O)=O)cc1Cl	10%
CCn1c(=O)n(CC(=O)N2CCN(c3ccccc3F)CC2)c(=O)c2ccccc21	-4%
COc1cc(/C=C2\SC(=S)N(N(C)c3ccccc3)C2=O)ccc1O	9%
CCc1ccc(NC(=O)CN(c2ccc(Cl)cc2)S(=O)(=O)c2ccsc2C(=O)OC)cc1	2%
COc1ccc(/C(O)=C2/C(=O)C(=O)N(CCN(C)C)C2c2ccc(OC)c(OC)c2)c(C)c1 (centres undefined)	-3%
Cc1ccc(N2C(=O)CC(c3ccsc3)C3=C2CC(C)(C)CC3=O)cc1 (centres undefined)	1%
NS(=O)(=O)c1ccc(CCNC(=O)CN2C(=O)COc3ccc(S(=O)(=O)N4CCCC4)cc32)cc1	-11%
CNc1c(NC(=O)C2CCC(C)CC2)c(=O)oc2ccccc12 (centres undefined)	9%
Cc1ccc(N2CCN(S(=O)(=O)c3ccc4c(c3)oc(=O)n4C)CC2C)cc1 (centres undefined)	6%
Cc1ccc(NC(=O)Cn2c(=O)n(Cc3nc(-c4ccccc4)no3)c(=O)c3cc4c(cc32)OCO4)c(C)c1	-6%
COc1ccc(COC(=O)CCc2c[nH]c3ccccc23)cc1F	-4%
CC1=C(C(N)=O)C(c2ccc(Br)cc2)n2ncnc2N1 (centres undefined)	-20%
CC(=O)c1ccc(NC(=O)c2ccc(-n3cncn3)c([N+](=O)[O-])c2)cc1	14%
O=C(Nc1cccc(C(=O)O)c1)/C(=C\c1ccccc1Cl)NC(=O)c1ccco1	2%
O=C(NCc1ccc2c(c1)OCO2)Nc1ccc2nsnc2c1	-9%
O=C(N/N=C/c1ccccn1)c1ccc(N/N=C/c2ccccn2)cc1	28%
CCOc1ccc2nc(NC(NC(=O)CC)(C(=O)OC)C(F)(F)F)sc2c1 (centres undefined)	9%
COc1cc(OC)c(NC(=O)CCc2nc(-c3cccs3)no2)cc1Cl	13%
CN1C(=O)Cc2cc(S(=O)(=O)Nc3ccc(Cl)cc3)ccc21	0%
O=C1CC(=O)N(CCNc2ncc(C(F)(F)F)cc2Cl)C(=O)N1	-18%

Look-ups from the entries so far.
Cc1ccc(NC(=O)Cn2c(=O)n(Cc3nc(-c4ccccc4)no3)c(=O)c3cc4c(cc32)OCO4)c(C)c1 in VDR inhibitor has -6%
O=C(c1ccccc1)C1CCN(C(=O)Nc2ccccc2)CC1 in VDR inhibitor has 27%

In the list so far, three contain a thiophene ring, fused or not.
canonical_smiles	VDR inhibitor
CCc1ccc(NC(=O)CN(c2ccc(Cl)cc2)S(=O)(=O)c2ccsc2C(=O)OC)cc1	2%
Cc1ccc(N2C(=O)CC(c3ccsc3)C3=C2CC(C)(C)CC3=O)cc1 (centres undefined)	1%
COc1cc(OC)c(NC(=O)CCc2nc(-c3cccs3)no2)cc1Cl	13%

Continuation:
canonical_smiles	VDR inhibitor
COc1cccc(C(=O)NN2c3ccccc3CCc3ccccc32)c1	-11%
COc1ccc(-n2c(=O)c(C)nc3cnc(N4CCOCC4)nc32)cc1	-1%
COc1ccc(S(=O)(=O)N2CCCCCC2)cc1C(=O)N(C)CC(=O)Nc1ccc(Cl)c(Cl)c1	15%
CCOCc1c(C(=O)OCC(=O)Nc2ccccc2C(N)=O)oc2ccccc12	-10%
CCN(CC(=O)NCc1ccc(F)cc1)C(=O)Cc1ccc(OC)cc1	-2%
CCN1CCN(S(=O)(=O)c2cc(OC)ccc2OC)CC1	-8%
Cc1n[nH]c(=O)c2c(NC(=O)CSc3nnnn3-c3ccc(O)cc3)oc(C)c12	-3%
NC(=O)COc1ccc2oc(=O)cc(-c3cc4ccccc4o3)c2c1	-2%
N[C@@H](C(=O)O)c1ccc(C(=O)O)c(C(=O)O)c1	1%&7%&3%&-16%
CCCCC(CC)C(=O)Nc1cc(=O)[nH]c2nc3ccccc3n12 (centres undefined)	28%
Cc1ccc(OCC(=O)NNC(=O)c2cc3ccccc3o2)cc1C	-20%
O=C(O)CCc1ccc(-c2cccs2)n1NC(=O)c1ccccc1Br	-3%
CCCCCCCCCCCCCCCCOP(=O)([O-])OCC[N+](C)(C)C	5%
Cc1cc(C)n(CC(=O)N2CCCC(N3CCN(Cc4ccc5c(c4)OCO5)CC3)C2)n1 (centres undefined)	2%
CCN(CC)c1ccc(/C=N/NC(=O)c2c[nH]c3ccccc23)cc1	-20%
O=C(Nc1ccccc1F)C(=O)c1cn(CC(=O)N2CCCCC2)c2ccccc12	-6%
CC(=O)Nc1ccc(S(=O)(=O)NCC2CCC(C(=O)N3CCN(c4ccccn4)CC3)CC2)cc1 (centres undefined)	4%
COc1cc(OC)cc(C(=O)N[C@H](C(=O)Nc2ccccc2N2CCOCC2)C(C)C)c1	-4%
COC(=O)c1ccc(CSc2nc3ccccc3[nH]2)o1	-6%
COc1ccc(C(=O)O)cc1S(=O)(=O)Nc1ccc(N2CCCCC2)cc1	-11%
NCC1OC(n2cnc3c(=O)[nH]c(N)nc32)C(O)C1O (centres undefined)	3%
Cc1ccc(NC(=O)C2CCN(S(=O)(=O)c3cccc4nonc34)CC2)cc1	-4%
CC(=O)c1cc(CCC(=O)NC2CCCCCC2)oc1C	-2%
COc1ccc(Br)cc1/C=N/NC(=O)CNC(=O)c1cccnc1	3%
CCCCN(CCCC)c1ccc(C(=O)c2ccccc2C(=O)O)c(O)c1	-22%

At a glance, some entries already given.
canonical_smiles	VDR inhibitor
COc1cccc(C(=O)NN2c3ccccc3CCc3ccccc32)c1	-11%
COc1ccc(-n2c(=O)c(C)nc3cnc(N4CCOCC4)nc32)cc1	-1%
COc1ccc(S(=O)(=O)N2CCCCCC2)cc1C(=O)N(C)CC(=O)Nc1ccc(Cl)c(Cl)c1	15%
CCOCc1c(C(=O)OCC(=O)Nc2ccccc2C(N)=O)oc2ccccc12	-10%

Next section.
canonical_smiles	VDR inhibitor
Cc1cnc2c(c1SCC(=O)Nc1ccc(F)cc1F)c(=O)n(C)c(=O)n2C	10%
CCOC(=O)c1cc(-c2ccc(C)cc2)n(CC(=O)Nc2ccccc2F)c1C	-12%
CC1(C)NC(=O)N(CCOCCOc2ccccc2-c2ccccc2)C1=O	-6%
COc1ccc(-n2nc(C(=O)NCC(=O)NCCc3ccc(OC)c(OC)c3)c3ccccc3c2=O)cc1	-4%
CCOc1nnnc2c1sc1nc(N3CCOCC3)c3c(c12)CCCC3	8%
Cc1nnc(N2CCC(C(=O)NCc3cccc(Cl)c3)CC2)c2nn(-c3ccccc3)c(C)c12	-14%
CCN=C(Nc1cccc(F)c1)SC1CC(=O)N(c2ccc(OC)cc2)C1=O (centres undefined)	6%
Cc1[nH]n(-c2ccccc2)c(=S)c1C=Nc1ccc([N+](=O)[O-])cc1	40µM*
CC(C)(C)c1ccc(C(CC(=O)O)NC(=O)C23CC4CC(CC(C4)C2)C3)cc1 (centres undefined)	-20%
COc1cccc(OCCOCCN(C)CCO)c1	17%
COc1cc(NC(=O)Cn2cc(C(=O)c3ccc(F)cc3)c(=O)c3ccc(C)nc32)cc(OC)c1	8%
Fc1ccc(-c2nnc(Cc3ccc(Cl)cc3)o2)cc1	-13%
CCOC(=O)C1=C(CC)Nc2ccccc2N=C1NC(=O)c1ccc(OC)c(S(=O)(=O)N2CCOCC2)c1	2%
Cc1ccc(CNC(=O)c2cnc(N3CCCCC3)c3ccccc23)cc1	5%
NCCCCCc1cn([C@@H](CCC(=O)O)C(=O)NCCCCCCCCCCC(=O)N2CCNCC2)nn1	4%
CCCc1cc(C(=O)N2CCCC(Cc3cccc(Cl)c3)(C(=O)OCC)C2)n(C)n1 (centres undefined)	-10%
CCCOc1ccc(N2C(=O)CC(N(Cc3ccco3)C(=O)CCC(=O)O)C2=O)cc1 (centres undefined)	-2%
O=C(CN1CCOCC1)N1CCCc2c1c(=O)oc1ccc(OCc3ccccc3)cc21	-9%
COc1ccccc1NNC(=O)C(O)(c1ccccc1)c1ccccc1	3%
CC1(C)CC(=O)C2=C(C1)NC1=C(C(=O)c3ccccc31)C2c1cccnc1 (centres undefined)	1%
Cc1ccc(N/C=C2\C(=O)C3(C)CCC2C3(C)C)cc1C (centres undefined)	6%
Cc1ccc(OCCOc2cccc3ccc(C)nc23)c([N+](=O)[O-])c1	10%
CC1=CSC2=NC(=O)/C(=C\c3cccn3-c3ccccc3)C(=N)N12	3%
CCC(=O)NC1CCN(C(=S)NC)CC1	0%
CCN(CC(=O)NCc1cccs1)C(=O)c1cc(S(=O)(=O)NCc2ccccc2)ccc1C	-11%

VDR inhibitor, entries above that show a hit.
canonical_smiles	VDR inhibitor
Cc1[nH]n(-c2ccccc2)c(=S)c1C=Nc1ccc([N+](=O)[O-])cc1	40µM*

(cont.)
SMILES	VDR inhibitor
CCS(=O)(=O)N1CCN(Cc2nc3ccccc3c(=O)[nH]2)CC1	5%
CCOc1ccc(-c2c(C(=O)N/N=C/c3cccc(Br)c3)nnn2-c2nonc2N)cc1	-7%
Cc1c(CC(=O)O)c(=O)oc2c(C)c(OCc3ccccc3Br)ccc12	1%
O=C(NCCc1ccccc1)C(=O)NCC1CCCO1 (centres undefined)	-6%
Cc1cccc(C(=O)Nc2ccc(O)c3c(=O)cc(-c4ccccc4Cl)oc23)c1	2%&-15%
CCOC(=O)c1ccc(NC(=O)c2c(NCc3cc(OC)c(OC)cc3OC)sc3c2CCCC3)cc1	-7%
CCOC(=O)C1=C(COC(=O)c2c(OC)cccc2OC)NC(=O)NC1C (centres undefined)	-5%
c1ccc(Oc2cc(-c3ccccc3)nc(-c3ccccc3)n2)cc1	-7%
Cc1c(CCOC(=O)C2C3CC4CC(C3)CC2C4)sc[n+]1CC(=O)c1ccc(Br)cc1 (centres undefined)	7%&11%
Cc1cc(C)nc(SCc2nnc(SCC(=O)O)n2-c2ccccc2)n1	-4%
NS(=O)(=O)c1ccc(N2N=C(c3ccc(Br)cc3)CC2c2ccc(F)cc2)cc1 (centres undefined)	-2%
O=C(NCc1ccccn1)C(=O)C1C(=O)Nc2ccccc21 (centres undefined)	-24%
CCOC(=O)c1cnc(-n2nc(C)cc2C)nc1NCc1ccc2c(c1)OCO2	12%
COc1ccc(CNC(=O)Cc2cccs2)cc1	-19%
O=C1CC(NS(=O)(=O)c2ccccc2F)CN1c1ccc2c(c1)OCCO2 (centres undefined)	-12%
N#CC1=C(S)N(c2ccc(F)cc2)C2(CCCCC2)NC1=O	?
Cc1cccc(OCc2cc(=O)n3c(-c4ccccc4)csc3n2)c1C	10%
COc1ccccc1NS(=O)(=O)c1c(C)[nH]c(C)c1C(=O)N1CCCC1	-5%
CC(NC(=O)C1CCCN1C(=O)OCc1ccccc1)c1ccccc1 (centres undefined)	6%
O=C(COc1cccc(Br)c1)NN=C1c2ccccc2-c2ccccc21	3%
Cc1ccc(NC(=O)CC2Oc3ccccc3NC2=O)cc1C (centres undefined)	-25%
[O-]/C(=C(\C(=S)Nc1ccccc1F)[n+]1ccccc1)c1ccc(OC(F)F)cc1	0%
CCOC(=O)COc1ccc(C)cc1C(=O)c1ccn2nc(-c3ccc(F)cc3)cc2n1	-10%
O=C(CI)Nc1cccc2cccnc12	7%
O=C(Nc1ccc(N2CCN(Cc3ccccc3)CC2)cc1)c1ccco1	-12%
Cc1cccc(-n2c(O)c(C=Nc3cc(O)ccc3C)c3ccccc3c2=O)n1	?
O=C(COc1ncnc2sccc12)NC1CCS(=O)(=O)C1 (centres undefined)	11%
CC(C)CN(CCCNC(=O)CN1C(=O)COc2ccc(S(=O)(=O)N3CCCC3)cc21)CC(C)C	-17%
CCC1c2ccc(C)n2CCN1C(=O)Nc1ccccc1C(=O)OC (centres undefined)	6%
COC/C=C/C1=CC2=CC(=O)C(C)(OC(=O)c3ccc(Cl)nc3)C(=O)C2=CO1 (centres undefined)	-26%
Cc1cccc(/C=N\NC(=O)c2ccccc2-n2cccc2)c1	3%
Cc1ccc(OCCC(=O)Nc2ccccc2C(=O)NC2CC2)cc1	22%
CCc1ccc(C2C(C(=O)Nc3ccccc3C)=C(C)Nc3nc(SCc4cccc(OC)c4)nn32)cc1 (centres undefined)	11%
CN1CCN(C(=O)C2CC(=O)N(c3ccc(Cl)cc3)C2)CC1 (centres undefined)	10%
Cc1ccc(NC(=O)[C@@]2(CC(=O)O)CC(/C=C/c3ccccc3)=NO2)c(C)c1	9%
COc1ccc(NC(=O)CSc2nc3ccccc3[nH]2)cc1	0%
COC(=O)NC(NS(=O)(=O)c1ccccc1)(C(=O)OC)C(F)(F)F (centres undefined)	2%
CC(=O)Nc1cccc(NC(=O)CSc2nccn2Cc2ccc(F)cc2)c1	?
Cc1ccccc1C(=O)N1CCC(C(=O)Nc2ccc3c(c2)OCCO3)CC1	-3%
CCCCCN(C(=O)CCC(=O)OCc1cccc(Br)c1)c1c(N)n(CCCC)c(=O)[nH]c1=O	9%
C1N2CN3CN1CN(C2)C3	12%&-6%
Cc1c(-n2c(-c3ccccc3Cl)n[nH]c2=S)c(=O)n(-c2ccccc2)n1C	4%
Cc1ccc(S(=O)(=O)N2CCN(C(=O)COC(=O)C3(C)CC3(Cl)Cl)CC2)c(C)c1 (centres undefined)	14%
CCCc1nnc(SCC(=O)Nc2ccc(OC)cc2)o1	-9%
O=S1(=O)CCO[C@H]2Cc3ccccc3[C@H]2N1Cc1cccc(F)c1	?

Bioassay records deposited in PubChem BioAssay by National Center for Advancing Translational Sciences (NCATS).

An excerpt, so the mix of outcomes need not match the whole.
